CDC25B-CDK2 inh: primary biochemical HTRF screen for blockers of M-phase inducer phosphatase 2 binding to CDK2/cyclin A; P30305+P24941; HTRF CDC25B-CDK2/CyclinA binding, anti-His/anti-Flag; active compounds read high; z-score (concentration not given with the values); 94,000 tested, 0.72% active; AID 1259370, 2018;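 further: score is relative to mean and SD of negative controls; strong numbers were not always called active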
TAR Tat displ: TAR RNA-Tat peptide displacers, HIV-1, primary screen, biochemical, FRET, FAM/TAMRA-labeled Tat. HIV-1 TAR RNA, Tat peptide displacement FRET; active compounds read high. 100,000 tested, 0.6% active. z-score (no concentration beside the values);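 further: score is relative to mean and SD of negative controls; some compounds called inactive have numbers as strong as hits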
Active calls of the source: *; x = no result given.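 How the source made its calls: active means z-score from 3 up in half or more of its runs; inactive means the rest.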 No enrichment for hits; any-hit rate near 0.89%.

SMILES	CDC25B-CDK2 inh	TAR Tat displ
COc1ccccc1C1CC(=O)C2=C(C1)NC(C)=C(C(=O)OC(C)C)C2c1ccccc1F (stereo not drawn)	-0.64	3.1
Cc1ccc(C2/C(=C(\O)c3ccc(F)cc3)C(=O)C(=O)N2CCN(C)C)cc1 (stereo not drawn)	0.72	1.1
CCCCCCC(=O)Nc1c(O)c2ccccc2[nH]c1=O	x	2.5
Cc1ccc(C2(C(F)(F)F)NC(=O)N3CCN=C3S2)cc1 (stereo not drawn)	0.91	x
COC(=O)c1sccc1NS(=O)(=O)c1ccc(C(=O)OC)n1C	0.57	x
CCOc1cc(C2C3=C(CC(C)(C)CC3=O)NC3=C2C(=O)CC(C)(C)C3)ccc1OC	-0.77	0.13
O=C(CSc1ccccc1)Nc1nc2cc(Cl)ccc2o1	x	-0.15
Cn1c(=O)c2c(-c3ccccc3F)c(Nc3ccccc3)oc2n(C)c1=O	x	0.57
O=S(=O)(c1cnc[nH]1)N1CCN(c2ccc(Cl)cc2)CC1	-0.55	0.16
COC1=C(OC)C(=O)C(CCCCCCCCCCO)=C(C)C1=O	x	1.6
CCOc1ccccc1C1C2=C(CC(C)(C)CC2=O)Nc2nc(SC)nn21 (stereo not drawn)	-1.9	2.5
O=C(O)C1CCN(Cc2cnn(-c3ccccc3)c2-n2cccc2)CC1	x	-1.4

Grouped by structure, those above with a Cl atom.
SMILES	CDC25B-CDK2 inh	TAR Tat displ
O=C(CSc1ccccc1)Nc1nc2cc(Cl)ccc2o1	x	-0.15
O=S(=O)(c1cnc[nH]1)N1CCN(c2ccc(Cl)cc2)CC1	-0.55	0.16

The list continues:
SMILES	CDC25B-CDK2 inh	TAR Tat displ
Cc1nc2c(c(Nc3cc(C(=O)O)ccc3C)n1)CCC2	0.09	1.8
CSc1ccccc1NC(=O)c1nc2ncccn2n1	-0.24	1.5
CC1(C(=O)NC2CCCC2)Cn2c(c(-n3cccc3)c3ccccc32)C(=O)N1Cc1ccccn1 (stereo not drawn)	x	0.22
Cc1ccc2nc(CCCO)[nH]c2c1	-1.2	0.49
O=C(O)/C=C(\CC(=O)O)C(=O)O	x	0.86
Cc1oc(C)c2c(=O)cc(-c3ccc4c(c3)OCO4)cc(OC(=O)c3ccccc3Cl)c12	-0.24	-2.2
CCCOC(=O)C1=C(C)NC2=C(C(=O)CC(C)(C)C2)C1c1cccs1 (stereo not drawn)	-0.93	1.6
CC(C)(C)NC(=O)Cn1c(=O)[nH]c2ccsc2c1=O	-0.48	1.3
CCCCC12CN3CC(C)(CN(C1)C3c1ccc3c(c1)OCO3)C2=O (stereo not drawn)	-1.2	2.3
C=CCSc1nnc(-c2nonc2NC(C)=O)n1C	-2.3	-1.1
O=C(O)C1CN(CCCP(=O)(O)O)CCN1 (stereo not drawn)	0.58	x
O=C1NC(c2ccccc2)Oc2ccccc21 (stereo not drawn)	-0.58	-0.73
CCOC(=O)c1c(CS(=O)(=O)c2ccc(Cl)cc2)oc2c(F)c(F)c(F)c(F)c12	-3.4	x
COc1ccc(-c2cc(=O)c3c(O)c(OC)c(O[C@H]4O[C@H](CO[C@@H]5O[C@@H](C)[C@H](O)[C@@H](O)[C@H]5O)[C@@H](O)[C@H](O)[C@H]4O)cc3o2)cc1	x	2.9
CC(C)CN(CCNC(=O)CC1Oc2ccccc2NC1=O)CC(C)C (stereo not drawn)	-0.89	0.18
O=C(Cc1ccccc1Cl)N/N=C(/C(=O)O)c1ccccc1	-0.82	x
O=C(CSc1nccn1C1CCCCC1)NC1CCCC1	x	1
c1ccc(-c2noc(CSc3nnc(-c4ccco4)n3-c3ccccc3)n2)cc1	-1.9	-0.35
Cc1ccc([N+](=O)[O-])cc1S(=O)(=O)N1CCN(Cc2ccc3c(c2)OCO3)CC1	-1.1	x
Cc1cc(C(=O)Nc2sc3c(c2C(N)=O)CCC(C)C3)no1 (stereo not drawn)	0.66	x
Cc1cc(C)c(C#N)c(SCC(=O)Nc2nnc(-c3cccs3)s2)n1	-1.1	x
CCCCN(C)c1nnnc2c1sc1nc(N3CCOCC3)c3c(c12)CC(C)(C)OC3	-1.8	x
Cc1ccc(-c2noc(CN(C(C)C)S(=O)(=O)c3ccc(F)cc3)n2)cc1	-0.79	-1.3
Cc1cc(NS(=O)(=O)c2ccc(Nc3nc(-c4ccc(F)c(C)c4)cs3)cc2)no1	0.52	x
COC(=O)C1=C(OC(=O)c2ccc(OC)cc2)c2ccccc2S(=O)(=O)N1C(C)C	-0.63	1.3
Cc1ccc(-c2nc3nc(C)c(Cc4ccccc4)c(=O)n3[nH]2)cc1	-6.2	2.3
COc1ccc(OC)c(N2C(=O)c3cccnc3C2Nc2cccc(Br)c2)c1 (stereo not drawn)	x	1.9
Cc1ccc(NCc2cccn2-c2nnc(N3CCCC3)s2)cc1	x	3.6
COc1cccc(CNc2nc3ccccc3c3nncn23)c1	-1.2	0.37
CCC(C(=O)OCc1cc(=O)n2nc(C3CC3)sc2n1)c1ccccc1 (stereo not drawn)	x	0.59
CC(C)(C)NC(=O)CSc1nnc2c(n1)-c1cccc3cccc-2c13	-0.37	1.3
O=S(=O)(Nc1ccc(Oc2ccc(F)cc2)cc1)c1ccc(Cl)cc1	12*	x
COc1ccc2nc(NC(=O)c3nn(-c4cccc(Cl)c4)ccc3=O)sc2c1	2	0.02
CN1CCCc2cc(C#N)c(=O)[nH]c21	-1.6	-1.1
COC(=O)c1c[nH]n2c(=O)cc(C3CCNCC3)nc12	-0.87	0.72
Cc1ccc(NC(=S)NC(=NC=C(Cl)Cl)C(C)(C)C)cc1	-2	x
COc1ccc(N(C2C=CS(=O)(=O)C2)S(=O)(=O)c2ccc(C)cc2)cc1 (stereo not drawn)	-0.69	-0.78
CCN1CCN(Cc2csc(C)c2-c2ccc(C)cc2)CC1	x	2.5
c1ccc2c(c1)-c1ccccc1C2c1ccncc1	-0.64	x
Cc1ccc(CNS(=O)(=O)c2cc3c4c(c2)C(C)C(=O)N4CCC3)cc1 (stereo not drawn)	x	0.67
CC1CC(=O)Nc2cc(S(=O)(=O)Nc3ccc(-c4ccno4)cc3)ccc2S1 (stereo not drawn)	x	0.07
CC(C)c1nn2c(=O)cc(COC(=O)COc3ccc(Cl)cc3)nc2s1	x	1.1
N#CC(C#N)=CNc1c(F)cccc1Cl	-0.9	x
O=C(NCc1ccco1)C1CCN(c2ccc(-c3cccs3)nn2)CC1	x	-0.61
O=C1c2ccccc2C(Nc2ccc(F)cc2)N1c1cccnc1 (stereo not drawn)	-0.49	-1.6
O=c1c(NCCc2ccccc2)c(-c2ccc3c(c2)CCCC3)c1=O	x	0.09
CC1CCCN(C2CCN(Cc3ccccc3Cl)CC2)C1 (stereo not drawn)	0.03	1
COc1ccc(S(=O)(=O)N2CCC(c3ccncc3)CC2)cc1Cl	x	-0.12

Gathered by group: those above with a COOH group (5)
SMILES	CDC25B-CDK2 inh	TAR Tat displ
O=C(O)C1CCN(Cc2cnn(-c3ccccc3)c2-n2cccc2)CC1	x	-1.4
Cc1nc2c(c(Nc3cc(C(=O)O)ccc3C)n1)CCC2	0.09	1.8
O=C(O)/C=C(\CC(=O)O)C(=O)O	x	0.86
O=C(O)C1CN(CCCP(=O)(O)O)CCN1 (stereo not drawn)	0.58	x
O=C(Cc1ccccc1Cl)N/N=C(/C(=O)O)c1ccccc1	-0.82	x

(list continues)
SMILES	CDC25B-CDK2 inh	TAR Tat displ
CCN(CCN(C)C)C(=O)c1c(C)oc2ncnc(N3CCOCC3)c12	x	2
CCOc1ccc2oc(C)c(C(=O)OC(C)C)c2c1	-4.1	3
COc1ccc(-c2nc3n(n2)C(=O)CC(c2ccc(OC)cc2)S3)cc1 (stereo not drawn)	x	-0.25
CCOC(=O)c1nc(N2CCCCC2)c2ccccc2n1	x	1.5
Cn1ccnc1SCC(=O)Nc1nc(-c2ccc(F)cc2)cs1	-0.1	-6.3
Cc1cccc(-c2nc(SCc3cc(=O)n4oc(C)cc4n3)n[nH]2)c1	x	0.99
O=C(c1cc(-c2ccc(Br)cc2)n[nH]1)N1CCN(c2ncccn2)CC1	x	1.8
CCSc1nc2nc[nH]c(=O)c2s1	-1.5	-1.3
CN(CCCNC(=O)C1CCN(c2nn3c(=O)c4c(nc3s2)CCCC4)CC1)c1ccccc1	x	0.85
Cc1nc(N2CCOCC2)c2c(C(=O)N(C)c3ccccc3)c(C)oc2n1	x	0.37
Cc1ccc(-n2ncc3c(N4CCC(C)CC4)ncnc32)cc1Cl	x	0.58
COc1cc(C2C3=C(CC(C)(C)CC3=O)NC3=C2C(=O)CC(C)(C)C3)cc(Br)c1OC	-1.3	1.5
N#C/C(=C\c1ccc(F)cc1)c1c[nH]c2ccccc12	0.43	x
O=C(CSc1nc2ccccc2o1)Nc1ccc(Oc2ccccc2)cc1	-2	x
O=C(O)CCCCCNc1ncnc2c1oc1ccccc12	-1	-1.2
O=C(Cn1ccccc1=O)c1ccc(Cl)cc1	-1.7	3
COc1ccc(C(=O)OCc2cc(=O)n3nc(-c4cccs4)sc3n2)cc1	x	-0.17
COC(=O)CC1Nc2ccccc2SC1=O (stereo not drawn)	-0.33	x
S=C(NNc1ncccc1-n1cccc1)Nc1ccc(Cl)cc1	-1	x
CCOc1ccc(C2c3c(oc4ccccc4c3=O)C(=O)N2c2ccc(C)cn2)cc1 (stereo not drawn)	-0.38	1.8
CCN(CC)C(=NC(=O)c1c(Cl)cccc1Cl)SC	0.75	x
CN1C(c2ccccc2)CC(=O)C2(O)CCCCC12 (stereo not drawn)	-1.5	x
O=C(Cn1c(=O)oc2ccccc21)NCC1CCN(CCc2cccs2)CC1	x	-2.1
O=C(CN1CCOCC1)N1c2ccccc2Sc2ccc(Cl)cc21	-1.3	x
Cn1cc(S(=O)(=O)N2CCc3ccccc32)cc1C(=O)Nc1cccc(Cl)c1	x	0.03
CN(C)CCNc1nc(-c2ccccc2)nc2ccccc12	-0.75	x
COC(=O)CCS(=O)(=O)c1ccc2ccccc2c1	-1	1.7
COC(=O)CSc1nc(C)cc(Oc2ccccc2)n1	-1.5	1.2
O=c1c2c3c(sc2nnn1Cc1ccc(F)cc1)CCCC3	-0.15	1.8
NC/C=C\C(=O)O	-1.8	x
Cc1c(C)c(C)c(CSCC(=O)NNC(=S)NCCc2ccccc2)c(C)c1C	0.45	x
COC(=O)/C(C#N)=C/c1ccc(N2CCCCC2)c([N+](=O)[O-])c1	-0.27	x
COc1ccc(-c2cc(-c3ccc(OC)cc3)c3c(=O)n(C)c(=O)n(C)c3n2)cc1	-0.18	x
O=C(NCc1ccccn1)c1cc(-c2ccccn2)nc2ccccc12	x	-2.2
O=C(NCC1COc2ccccc2O1)C(=O)c1c[nH]c2ccccc12 (stereo not drawn)	-0.55	-0.03
Cc1ccc(C)c(NS(=O)(=O)c2ccc3c(c2)[C@H]2C=CC[C@H]2[C@@H](c2ccc(C(=O)O)cc2)N3)c1	0.34	x

Entries of single compounds, quoted from the list. Values in the order: CDC25B-CDK2 inh | TAR Tat displ
COC(=O)/C(C#N)=C/c1ccc(N2CCCCC2)c([N+](=O)[O-])c1 is listed as -0.27 | x
COc1ccc(-c2cc(-c3ccc(OC)cc3)c3c(=O)n(C)c(=O)n(C)c3n2)cc1 is listed as -0.18 | x
CN(C)CCNc1nc(-c2ccccc2)nc2ccccc12 is listed as -0.75 | x
COC(=O)CCS(=O)(=O)c1ccc2ccccc2c1 is listed as -1 | 1.7
O=C(NCC1COc2ccccc2O1)C(=O)c1c[nH]c2ccccc12 (stereo not drawn) is listed as -0.55 | -0.03

Next part.
SMILES	CDC25B-CDK2 inh	TAR Tat displ
CCc1ccc(OCc2cc(=O)n3c(-c4ccccc4)csc3n2)cc1	-2.7	-1.3
Cc1ccc(S(=O)(=O)N(C)c2c(C)ccc(S(=O)(=O)N3CCCC3)c2C)cc1	-1.2	0.84
COc1ccc(S(=O)(=O)N2CCc3cc4ccc(C)cc4nc32)cc1OC	0.04	0.16
O=C(NCCC1=CCCCC1)C(=O)NCC(c1ccc2c(c1)OCO2)N1CCOCC1 (stereo not drawn)	x	1.3
Cc1ccc(S(=O)(=O)N2CCC(N3CCOCC3)CC2)cc1C	x	1.4
COc1cc2c(cc1OC)C(C)N(C(=O)c1sc3ccccc3c1Cl)CC2 (stereo not drawn)	-1.7	x
Cn1nc(C(=O)N2CCOCC2)c2c1CCN(S(=O)(=O)c1cccc3cccnc13)C2	x	0.86
CN(C)c1ccc(C2CC(=O)C=C(NC3Cc4ccccc4C3)C2)cc1 (stereo not drawn)	5.2	-0.48
CC1(C)CC(=O)C2=C(C1)C(c1ccc3c(c1)OCO3)Nc1ccc3ccccc3c12 (stereo not drawn)	-0.76	x
CCCCN(C1CCN(CC)CC1)S(=O)(=O)c1ccc(-c2cc(C(F)(F)F)on2)s1	x	1.1
O=C1CC(c2cccc(O)c2)c2c(ccc3ccccc23)N1 (stereo not drawn)	-1.1	0.27
O=C(Nc1ccc(C(F)(F)F)cn1)c1ccc(Oc2cc(Cl)cc(Cl)c2)o1	-1.1	x
C#CCOC(=O)Nc1cc(C)n(-c2ccccc2)n1	-1.4	x
Cc1cccc(C)c1OCC(N)C(C)C (stereo not drawn)	-1.4	x
Cn1c(SCC(=O)Nc2ccccc2Cl)nc2c(oc3ccccc32)c1=O	-0.24	0.16
Cn1nnc2c(NCCC3=CCCCC3)ncnc21	x	2.5
Cc1cc(C)c2oc(C(=O)NCC(c3ccc(C)o3)N3CCC(C)CC3)cc(=O)c2c1 (stereo not drawn)	-2	1.6
Cc1ccc(Nc2cc(Nc3ccncc3)ncn2)cc1	1.2	1.8
Cc1ccccc1-c1nc(SCC(=O)N2CCc3ccccc3C2)n2[nH]c(=O)cc2n1	x	0.78
CC(C)N(c1c(-c2ccccc2)c(=O)c1=O)C1CCCCC1	x	3.6

From PubChem
